# From PubChem
# BJeLR viability = MLPCN primary cell-based screen for lethality selective to Ras in HRASV12 cells; hit rate 0.17% among 300,000; BJeLR (HRASV12) viability, CellTiter-Glo ATP luminescence, 48 h; reference of the scale not given here; AID 1554, 2009; inhibition, % (test concentration not listed);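 active means replicate mean above 50%; inconclusive means above 50% but judged a plate artefact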;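 further: 50 nL library stock added to about 25 µL; numbers are from one replicate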
# Mtb hypoxia rep = PubChem AID 1159583; M. tuberculosis hypoxia-regulated fluorescent reporter, fluorescence; fluorescence inhibition, % (no concentration beside the values); hit rate 0.1% among 300,000;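 active means 35 to 45% if threefold the growth effect, above 45% if 1.5-fold the growth effect; inactive means the rest, general growth blockers included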;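 further: wells of about 50 µL received 100 nL stock; 0% = vehicle wells and 100% = reference inhibitor wells; whole bacteria with a GFP reporter of the hypoxia response; strong numbers were not always called active; many hits fall short of the cut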
# PrP 5UTR inh = inhibition of PrP 5' UTR reporter expression. cell-based PrP 5' UTR mRNA reporter, plate reader. AID 488862, 2010. inhibition, % (test concentration not listed). hit rate 0.35% among 340,000;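 active means every replicate at 50% or more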;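 further: 0 = median of the neutral control wells; tested in H4 reporter cells; numbers are from one replicate; inactives centre near -14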
# RN4220 kill = growth inhibition of S. aureus RN4220, primary screen, OD600 | 16 h | inhibition, % (concentration not given with the values) | hit rate 0.33% among 330,000;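 active means z-score of -3 or lower and OD600 up to 0.18 on both plates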;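 further: plate controls were untreated cells for no effect and reference antibiotic for full effect; stock transfer was 100 nL into about 80 µL; one replicate is shown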
# Bead autofluor = counter-screen for toxin protease inhibitors: compound fluorescence | compound autofluorescence counterscreen, microsphere flow cytometry; hits give high values | fluorescence intensity (no concentration beside the values) | hit rate 3.1% among 360,000;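 active means at least 3 SD above the mean of all compounds, about 16000 in these data; inconclusive means too few beads counted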;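 further: 100 nL of 1 mM stock went into each well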
# ugtP null kill = growth inhibition of ugtP-null S. aureus, primary screen, RN4220 ugtP deletion, OD600; growth inhibition, % (concentration not given with the values); 16 h; some inactives read as strong as hits; AID 1259309, 2017; hit rate 0.54% among 330,000;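 active means z-score under -3 and OD600 up to 0.15 on both plates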;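 further: plate controls were untreated wells for no effect and antibiotic for full effect; wells of about 80 µL received 100 nL stock; the first replicate is given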
# Mtb hypoxia rep growth = further read-out of Mtb hypoxia rep, marked with its call; growth inhibition, %; measured here: M. tuberculosis growth (absorbance);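 0% = vehicle and 100% = reference antibiotic; read after six days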
# Starred values were filed as active, the others as inactive; ? = inconclusive; . = no result given.
1: O=C(NCCCN1CCc2ccccc2C1)C1CCN(S(=O)(=O)N2CCCC2)CC1
2: O=C(Nc1ccsc1C(=O)NC1CCCCC1)c1ccc(F)cc1
3: O=C(c1ccc(S(=O)(=O)N2CCCC2)cc1)N1CCC(CN2C(=O)c3cccc4cccc(c34)C2=O)CC1
4: Cc1cc(C)c2c(-n3cccc3)c(NC(=O)OCc3ccccc3)sc2n1
5: CCN(C(=O)CSc1nnc(-c2ccccc2)o1)c1c(N)n(Cc2ccccc2)c(=O)[nH]c1=O
6: C=CCN(C(=O)CSC1=NC(=O)CN1C(C)=O)c1nc(C)c(-c2ccccc2)s1
7: COc1ccccc1CNC(=O)c1cc2c(s1)CS(=O)(=O)C2
8: NC(=O)CSc1nnnn1-c1ccccc1Cl
assay / entry	1	2	3	4	5	6	7	8
BJeLR viability	-5.4	-0.7	4.4	-1.7	-3.9	-0.1	-10.2	-2.9
Mtb hypoxia rep	-5.0	4.4	-12.4	.	13.1	6.4	14.5	8.8
Mtb hypoxia rep growth	4.6	6.5	-11.9	.	0.2	14.2	0.3	5.2
PrP 5UTR inh	-2.0	-11.2	-1.9	-5.7	-8.0	-10.3	-13.7	-2.2
RN4220 kill	2.1	2.1	2.4	-1.2	6.3	-2.8	2.2	0.0
Bead autofluor	8401	9219	4793	4875	3291	3373	8191	4413
ugtP null kill	-1.1	-15.1	-8.1	15.1	-79.3	-2.8	6.5	1.9

9: COc1ccc(Br)cc1CNC(=O)c1ccc2c(c1)N(C)CCS2
10: O=C(NCc1ccccc1)N1CCN(CCO)CC1
11: O=C(Cn1nnc2ccccc2c1=O)NCc1ccc(Cl)cc1
12: CCCCC1CCc2[nH]nc(C(=O)O)c2C1 (centres undefined)
13: CC(C)(C)NC(=O)NC(=O)COC(=O)C1c2ccccc2Oc2ccccc21
14: CCOC(=O)CN1CC23C=CC(O2)C(C(=O)Nc2ccc(F)cc2)C3C1=O (centres undefined)
15: C=C(C)COc1ccc(C2NC(=O)c3ccccc3O2)cc1OCC (centres undefined)
16: CC(=O)c1cc(CN2CCN(Cc3ccccc3)C(CCO)C2)cs1 (centres undefined)
assay / entry	9	10	11	12	13	14	15	16
BJeLR viability	-5.9	-16.3	5.4	.	-0.6	3.2	5.3	1.2
Mtb hypoxia rep	0.7	.	13.7	5.0	-5.8	.	15.9	0.5
Mtb hypoxia rep growth	6.8	.	2.0	5.9	0.6	.	9.0	2.5
PrP 5UTR inh	-17.6	-6.0	-10.5	-19.6	-5.2	-24.0	-6.1	-11.3
RN4220 kill	0.8	.	0.5	3.9	-2.6	4.9	4.9	2.6
Bead autofluor	5877	3785	3187	2940	4512	4700	4025	4865
ugtP null kill	-12.5	.	4.7	0.4	1.9	-1.2	5.6	1.1

# Fetched by compound from the list above (5):
3: O=C(c1ccc(S(=O)(=O)N2CCCC2)cc1)N1CCC(CN2C(=O)c3cccc4cccc(c34)C2=O)CC1
7: COc1ccccc1CNC(=O)c1cc2c(s1)CS(=O)(=O)C2
9: COc1ccc(Br)cc1CNC(=O)c1ccc2c(c1)N(C)CCS2
11: O=C(Cn1nnc2ccccc2c1=O)NCc1ccc(Cl)cc1
15: C=C(C)COc1ccc(C2NC(=O)c3ccccc3O2)cc1OCC (centres undefined)
assay / entry	3	7	9	11	15
BJeLR viability	4.4	-10.2	-5.9	5.4	5.3
Mtb hypoxia rep	-12.4	14.5	0.7	13.7	15.9
Mtb hypoxia rep growth	-11.9	0.3	6.8	2.0	9.0
PrP 5UTR inh	-1.9	-13.7	-17.6	-10.5	-6.1
RN4220 kill	2.4	2.2	0.8	0.5	4.9
Bead autofluor	4793	8191	5877	3187	4025
ugtP null kill	-8.1	6.5	-12.5	4.7	5.6

# (next part)
17: COC(=O)c1c(NC(=O)c2cccc(N3C(=O)CCC3=O)c2)sc2c1CCN(C(C)=O)C2
18: COc1cc(/C=N/NC(=O)c2ccccn2)cc2c1OCO2
19: CC(=NNC(=O)c1ccccc1)C(=O)O
20: CCc1ccc2[nH]c(=O)c(C(c3nnnn3Cc3ccccc3)N3CCOCC3)cc2c1 (centres undefined)
21: CCn1ncc2c(OCc3ccc(C#N)cc3)cc(C)nc21
22: Cc1ccc(CNC(=O)Cn2cnc3c(NC(=O)OCc4ccccc4)ncnc32)o1
23: COc1ccc(C(=O)Nc2ccccc2Cc2ccccc2)c(OC)c1
24: CCOC(=O)c1cc2c(c(CCO)n1)[C@@H](CCO)N(S(=O)C(C)(C)C)C2 (some centres undefined)
assay / entry	17	18	19	20	21	22	23	24
BJeLR viability	-2.1	2.1	.	-6.9	0.5	.	-1.7	.
Mtb hypoxia rep	4.5	.	4.9	4.0	9.3	-1.3	11.8	-5.5
Mtb hypoxia rep growth	1.0	.	0.8	7.2	6.1	-0.4	12.0	2.0
PrP 5UTR inh	-7.1	-61.3	.	-27.5	1.3	-11.0	-13.5	-25.4
RN4220 kill	4.0	.	4.9	4.2	11.0	7.0	0.9	1.9
Bead autofluor	4557	3233	.	21543*	6552	4637	2419	3631
ugtP null kill	-3.1	.	-5.1	-8.2	9.2	10.3	1.9	5.8

25: Cc1ccc(C(=O)NCCNC(=O)c2ccccn2)cc1
26: Cc1cnc(NC(=O)CCc2ccccc2)s1
27: COc1ccc(S(=O)(=O)N2CCCCCC2)cc1C(=O)N(C)Cc1ccc(Cl)cc1Cl
28: Cc1csc(SCC(=O)Nc2cccc(S(=O)(=O)N3CCCC3)c2)n1
29: CCOc1ccccc1OCCCC(=O)Nc1sccc1C(N)=O
30: COc1ccccc1NCC(=O)N/N=C/c1sccc1C
31: COc1ccc(S(=O)(=O)N2CCC(C(=O)Nc3cccc(C(C)=O)c3)CC2)cc1C
32: CC(C)CC(=O)Nc1ccc2c(c1)OCO2
assay / entry	25	26	27	28	29	30	31	32
BJeLR viability	-0.5	12.2	-6.7	2.4	-6.6	4.0	1.1	-3.8
Mtb hypoxia rep	3.4	8.3	10.8	.	.	.	4.8	-2.4
Mtb hypoxia rep growth	-3.3	1.5	8.3	.	.	.	13.0	-1.5
PrP 5UTR inh	-15.7	-25.1	-17.9	-6.0	-8.2	-11.4	2.5	-53.4
RN4220 kill	4.5	-0.4	5.1	0.8	3.3	.	4.5	2.9
Bead autofluor	5037	3331	?	4797	2374	4485	11109	4696
ugtP null kill	5.1	6.7	9.3	11.5	-1.9	.	-4.6	2.0

33: CCCCC(=O)Nc1ccc(C(=O)Nc2ccc(OC)cc2[N+](=O)[O-])cc1
34: CCOC(=O)Cn1nc(-c2ccccc2)ccc1=O
35: COc1ccc(OCC(=O)N2CCN(S(=O)(=O)c3ccc(Cl)s3)CC2)cc1
36: O=C1C2CC=CCC2C(=O)N1c1ccc(NCCc2ccccc2F)c([N+](=O)[O-])c1 (centres undefined)
37: N#Cc1ccc(C(=O)Nc2ccc([N+](=O)[O-])cc2)c(F)c1
38: CC1CCCC(=NNC(=O)Nc2ccccc2)C1 (centres undefined)
39: COc1ccc(Cc2nc3ccc(C(=O)NCCn4ccnc4C)cc3o2)cc1OC
40: COc1ccc(-c2ncc(CN3CCN(CCC(C)C)C(CCO)C3)cn2)cc1 (centres undefined)
assay / entry	33	34	35	36	37	38	39	40
BJeLR viability	3.0	9.4	.	16.8	10.3	.	7.3	6.2
Mtb hypoxia rep	16.1	0.5	4.4	11.4	5.3	13.0	0.5	2.3
Mtb hypoxia rep growth	15.7	6.8	-2.7	6.6	-17.2	-1.8	3.9	3.6
PrP 5UTR inh	-30.6	-21.6	-16.5	-28.1	-24.3	.	-8.1	-62.7
RN4220 kill	1.9	3.7	1.2	5.5	8.7	1.1	-1.0	-1.2
Bead autofluor	2096	23084*	3141	2488	4281	.	5610	4795
ugtP null kill	-0.5	2.4	4.4	13.5	5.3	8.9	-2.3	-0.3

41: O=C(O)C1CCCCC1C(=O)NC1CCCCC1 (centres undefined)
42: Cn1c(NC(=O)c2ccc(F)c(F)c2)cc(=O)n(C)c1=O
43: O=C(CSc1nc2ccccc2[nH]1)N/N=C/C=C\c1ccccc1[N+](=O)[O-]
44: CCOC(=O)C1CCN(S(=O)(=O)c2c(C)[nH]c(=O)[nH]c2=O)CC1
45: O=C(NCc1ccccc1)c1ccc(Cl)nc1
46: CN1CCN(C(=O)CSc2ccc(C(F)(F)F)cc2[N+](=O)[O-])CC1
47: CCOc1ccc(C(=O)Nc2c3c(nn2-c2ccc(C)cc2)CS(=O)C3)cc1OCC (centres undefined)
48: CCOC(=O)c1nn(-c2ccc(C)cc2)c(=O)cc1OCC(=O)Nc1cccc(C)c1
assay / entry	41	42	43	44	45	46	47	48
BJeLR viability	-11.3	-2.8	-1.9	-1.6	3.7	0.2	.	-5.6
Mtb hypoxia rep	2.0	0.3	.	.	19.8	15.5	5.2	3.1
Mtb hypoxia rep growth	3.7	-2.8	.	.	13.4	3.2	3.8	8.3
PrP 5UTR inh	-35.4	10.4	-29.2	-18.9	-17.4	7.6	3.6	-27.5
RN4220 kill	4.7	6.4	.	0.2	4.8	2.9	-2.8	4.9
Bead autofluor	10256	6265	2039	5326	3406	2378	4269	4308
ugtP null kill	8.3	14.4	.	0.9	5.0	1.5	4.1	-4.6

49: O=C(Nc1cc([N+](=O)[O-])ccc1N1CCOCC1)c1cccs1
50: O=C(Cc1ccc2c(c1)OCCO2)Nc1cccc(S(=O)(=O)N2CCOCC2)c1
51: COc1ccc(NC(=O)CS(=O)c2ccc(Cl)c(Cl)c2)cc1 (centres undefined)
52: O=C(COC(=O)c1ccc2c(c1Cl)C(=O)c1ccccc1C2=O)NC1CCCCC1
53: CCn1c(=O)c2c(nc(SCC(=O)NCC3CCCO3)n2C)n(C)c1=O (centres undefined)
54: COc1ccccc1NC(=O)c1ccccc1-c1ccccc1C(=O)O
55: O=C(OCC(=O)N1CCOCC1)c1ccccc1O
56: CC(=NC(C)c1ccccc1)c1c(O)[nH]c(=O)[nH]c1=O (centres undefined)
assay / entry	49	50	51	52	53	54	55	56
BJeLR viability	1.5	.	-10.3	-5.2	-8.9	-1.1	8.4	10.4
Mtb hypoxia rep	-5.1	4.3	-9.4	-13.8	16.9	.	8.6	9.5
Mtb hypoxia rep growth	8.3	8.6	-8.0	-1.4	6.0	.	6.6	7.3
PrP 5UTR inh	-11.8	-19.6	2.3	-8.9	-25.1	-42.4	-50.0	-8.2
RN4220 kill	0.0	-0.3	0.0	3.7	3.8	0.9	2.5	1.7
Bead autofluor	5857	?	5365	2730	10122	3589	3581	9655
ugtP null kill	-0.2	2.8	1.9	-4.1	5.4	6.0	6.2	2.0

57: COc1cccc(CNC(=O)c2ccc(Cl)c(NC3=NC4CS(=O)(=O)CC4S3)c2)c1 (centres undefined)
58: CC1(C)CC(=O)C(N=Nc2ccc(F)cc2)=C(O)C1
59: CC(Sc1nnc(-c2ccncc2)n1-c1ccc(F)cc1)C(=O)NC1CC1 (centres undefined)
60: CCCCCCCn1c(=N)n(CC(=O)c2ccco2)c2ccccc21
61: Cc1cc(Cl)c(OCCN2C(=O)NC(C)(C)C2=O)c(Br)c1
62: O=C(C1CCCCC1)N1CCc2ccccc21
63: C=CCn1c(SCCNC(C)=O)nc2cc(-c3ccccc3)sc2c1=O
64: COc1ccccc1CNC(=O)C1CCC(CNS(=O)(=O)c2cccc3cccnc23)CC1 (centres undefined)
65: O=C(N=Nc1c(O)[nH]c2ccccc12)c1cccc(S(=O)(=O)Nc2ccccc2Cl)c1
66: O=C1CC(N2CCN(c3ccccc3Cl)CC2)C(=O)N1c1ccc(F)cc1 (centres undefined)
assay / entry	57	58	59	60	61	62	63	64	65	66
BJeLR viability	1.0	2.8	.	2.3	-4.9	-1.5	-0.6	1.1	1.5	19.5
Mtb hypoxia rep	-4.5	10.8	-5.2	.	11.7	13.8	-5.2	4.1	1.7	6.6
Mtb hypoxia rep growth	0.6	10.3	14.2	.	10.7	-2.8	9.5	-3.2	5.5	-3.0
PrP 5UTR inh	-1.1	-36.2	-11.7	-11.9	-2.4	-6.6	1.6	-8.5	-15.4	-21.9
RN4220 kill	4.6	4.7	0.0	-2.6	3.0	4.2	-4.4	2.3	10.4	1.7
Bead autofluor	6741	4691	4006	?	20599*	4703	5130	5540	2618	9839
ugtP null kill	7.7	-0.7	-2.9	-16.2	-3.9	4.3	1.0	6.0	-8.1	10.2
